Menin MLL FP FL = displaces fluorescein MLL peptide from human menin | Fluorescence polarization, fluorescein-MLL peptide displacement from menin | FP activity change, % at 61.4 µM | 290,000 tested, under 10 active | AID 1766; inconclusive = falling polarisation curve, or a change in total fluorescence; inactive = total fluorescence flat and polarisation flat or rising; no compound was filed as active; the % refers to the polarisation; negative = inhibition;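 also: % of control where 0% means no effect; inhibitors lower the polarisation; unlabelled MLL peptide was the positive control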
D2 potentiator = positive allosteric modulators of human D2 dopamine receptor; DiscoveRx D2 beta-arrestin cells, luminescence, 90 min; 100% = 57 uM dopamine signal; potentiation, % (no concentration beside the values); 360,000 compounds, 0.23% hits; AID 624464; active = potentiation of 50% or more; inconclusive = 30% to 50%; inactive = 30% or less;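 also: compound concentration not given in the record; tested on top of an EC20 dose of dopamine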
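D2 cells co-treated with compound plus 50 nM dopamine (EC20) for 90 min at 37 deg C to detect potentiation. Beta-arrestin recruitment was read as enzyme-fragment luminescence after 1 h at ambient temperature. Full response was set by 57 uM dopamine.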
TRPV1 potentiator = enhances activation of the human vanilloid receptor TRPV1; Q8NER1; TRPV1-expressing cells, Fluo-8 calcium influx, capsaicin EC20 potentiation; host cell line not named in the record; control for the full effect not named in the record; potentiation, % at 8.33 µM; 320,000 compounds, 0.02% hits; AID 540277; active means potentiation above 80%; inconclusive means 30% to 80%; inactive means below 30%; also: 0% is about no effect
Target sequence (Q8NER1 whole entry, looked up): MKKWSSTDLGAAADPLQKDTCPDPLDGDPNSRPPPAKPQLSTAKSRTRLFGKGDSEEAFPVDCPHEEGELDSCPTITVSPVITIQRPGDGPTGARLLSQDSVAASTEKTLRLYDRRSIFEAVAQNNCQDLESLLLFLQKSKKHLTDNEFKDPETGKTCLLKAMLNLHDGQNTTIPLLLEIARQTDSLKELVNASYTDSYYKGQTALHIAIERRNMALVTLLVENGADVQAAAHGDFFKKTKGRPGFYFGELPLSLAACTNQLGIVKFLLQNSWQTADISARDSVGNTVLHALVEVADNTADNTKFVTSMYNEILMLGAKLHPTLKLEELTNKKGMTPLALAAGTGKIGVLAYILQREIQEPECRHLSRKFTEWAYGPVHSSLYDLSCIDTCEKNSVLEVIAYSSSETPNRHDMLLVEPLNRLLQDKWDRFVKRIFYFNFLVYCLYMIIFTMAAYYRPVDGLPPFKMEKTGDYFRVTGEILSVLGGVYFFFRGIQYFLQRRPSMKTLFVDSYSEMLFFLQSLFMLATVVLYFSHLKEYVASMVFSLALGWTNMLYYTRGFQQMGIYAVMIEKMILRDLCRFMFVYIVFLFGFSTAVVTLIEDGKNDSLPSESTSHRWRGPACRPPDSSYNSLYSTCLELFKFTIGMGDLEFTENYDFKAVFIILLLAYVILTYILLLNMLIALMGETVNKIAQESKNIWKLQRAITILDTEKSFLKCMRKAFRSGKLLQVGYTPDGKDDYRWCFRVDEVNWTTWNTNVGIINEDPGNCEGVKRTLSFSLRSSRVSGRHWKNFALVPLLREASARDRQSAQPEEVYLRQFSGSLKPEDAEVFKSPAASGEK
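Fluo-8 calcium influx in TRPV1-expressing cells, kinetic read (ex 480/em 520 nm). Compound added and read 3 min for agonist activity, followed by capsaicin at EC20 final and 2 min further read for enhancement.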
Sfp inh = Sfp phosphopantetheinyl transferase inhibition; Potency, µM, for inactives: max response, negative = inhibition, hits mostly inhibitors; 310,000 compounds, 3.5% hits; Biochemical Sfp PPTase activity, qHTS; active = well fitted inhibition curve with a large enough effect; inconclusive = small, poorly fitted or top-dose-only effect, or another doubt; inactive = no such curve, though single readings can be large or run the other way;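 also: the enzyme is Sfp with the accession as filed and its product quenches rhodamine fluorescence; potency is read from the fitted curve at half-maximal effect; 0% = enzyme reaction without inhibitor and -100% = no enzyme wells; top concentration of the series not given in the record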
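Sfp 15 nM + cpd, 15 min RT; start w/ rhodamine-CoA 5 uM, BHQ-2-YbbR 12.5 uM (final); 50 mM Hepes pH 7.6, 10 mM MgCl2, 0.01% NP-40, 0.01% BSA; read 525/598 nm at 0 and 30 min.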
gsp ag = agonists of gsp mutant (McCune-Albright syndrome). gsp mutant cells, cAMP HTRF, 30 min; control for the full effect not named in the record. 340,000 compounds, 0.13% hits. Potency, µM (titrated, usually from 76.9 µM), for the others: at the highest dose activation (cAMP increase), actives largely listed as activators; active = well fitted activation curve with a large enough effect; inconclusive = small, poorly fitted or top-dose-only effect, or another doubt; inactive = no such curve, though single readings can be large or run the other way; cell line not stated here;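 also: phosphodiesterase inhibitor Ro 20-1724 added with compounds to block cAMP breakdown; potency is read from the fitted curve at half-maximal effect; nearly all actives have a fitted effect of over 60% in size; about a fifth of the inactives were tested at one dose only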
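Cells stably selected in G418 were plated at 2000/well, grown 16-24 hr, then given compounds in DMSO with the PDE inhibitor […] (300 uM solution added) for 30 min at 37C; cAMP was read by HTRF.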
ClpP mod = qHTS Assay for Activators of ClpP | ATP-dependent Clp protease proteolytic subunit (Bacillus subtilis (strain 168)), P80244 | purified B. subtilis ClpP, FRET peptide cleavage, 20 min | Potency, µM (doses to about 57.5 µM), for the others: at the top dose activity change, negative = active | 340,000 compounds, 1.9% hits; active = well fitted falling curve with a large enough effect; inconclusive = small, poorly fitted or top-dose-only effect; inactive = no such curve, though single readings can be large or run the other way; also: potency is read from the fitted curve at half-maximal effect; the source files actives as falling curves though it sought activators and does not explain the sign; nearly all actives have a fitted effect of over 65% in size; many hits overshoot -100%
Target sequence (P80244 whole entry, looked up): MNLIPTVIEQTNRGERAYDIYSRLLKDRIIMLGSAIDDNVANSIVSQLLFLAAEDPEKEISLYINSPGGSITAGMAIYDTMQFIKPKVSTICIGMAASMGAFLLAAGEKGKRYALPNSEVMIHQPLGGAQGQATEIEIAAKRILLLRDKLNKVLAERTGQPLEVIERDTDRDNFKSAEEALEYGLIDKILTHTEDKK
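FRET quenching reversal measured ClpP activation: 10 microg/mL B. subtilis ClpP at pH 8 with the FRET-FV decapeptide, read at 430 nm after 320 nm excitation. The 20-min minus 0-min signal was scaled between DMSO/no-enzyme wells and ADEP (5.8 microM final).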
gsp antag = antagonizes gsp, the McCune-Albright syndrome mutation | gsp-mutant cells, cAMP HTRF, 30 min; control for the full effect not named in the record | Potency, µM (doses to about 76.9 µM), for the others: top-dose activity change, negative = inhibition, actives largely listed as inhibitors | 340,000 compounds, 0.4% hits | AID 624288; active = falling curve of any shape with a large fitted effect; inconclusive = falling curve, mostly with a smaller effect; inactive = flat or rising curve; cell line not stated here;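 also: intracellular cAMP measured with PDE inhibitor Ro 20-1724 present during compound exposure; potency is read from the fitted curve at half-maximal effect; % is scaled to controls: 0 for no effect and ±100 for the full control effect; nearly all actives have a fitted effect of over 65% in size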
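G418-selected cells were plated in DMEM/10% FBS for 16-24 h at 37C, then treated with compounds plus the PDE inhibitor […] (300 uM solution added) for 30 min at 37C. Intracellular cAMP was measured by HTRF after 30 min lysis at room temperature.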
* marks the source's active call; other numbers are inactive results; ? = inconclusive; nt = no result given; & = joins results of further samples; [ ] = dose if it differs, or a comment.

SMILES	Menin MLL FP FL	D2 potentiator	TRPV1 potentiator	Sfp inh	gsp ag	ClpP mod	gsp antag
C/C(=N\NC(=O)c1cc(C)nc2ccccc12)c1ccco1	2.2	0	2	12%	0%[15.4 µM]	1.8%	7%
CN(C)c1ccc(/C=N/c2cc(-c3ccccc3)nn2-c2ccccc2)cc1	-1.4	13	-14	4%	?	0.0%	-2%
COc1ccccc1C1C(C(=O)c2cc3ccccc3o2)=C(O)C(=O)N1c1cc(C)on1 (stereo unspecified)	0.4	-5	0	24%	?	-2.3%	9%
CC1CCCN(S(=O)(=O)c2cc(C(=O)NCc3ccco3)ccc2Cl)C1 (stereo unspecified)	nt	1	nt	nt	-31%[inhibitor]	0.4%	-11%
O=C(c1cc(COc2cccc(C(F)(F)F)c2)on1)N1CCSCC1	1.7	-5	-11	-6%	0%	-9.8%	4%
Cc1ccc(Cl)c(OC(=O)c2ccc(N3CCOCC3)c([N+](=O)[O-])c2)c1	1.9	0	-6	-7%	-8%[15.4 µM]	-0.2%	-9%
Cc1ccc(NCc2nnc(SCC(=O)N3CCCCC3)n2CC2CCCO2)c(C)c1 (stereo unspecified)	nt	17	nt	nt	-3%	1.7%	-6%
COC(=O)[C@H](CC(C)C)NC(=O)Cn1cnc(C(=O)Nc2ccc(C)c(C)c2)n1	nt	-4	nt	nt	nt	2.3%	1%
O=C(COc1ccccc1)NCC(=O)Nc1ccc(S(=O)(=O)NCc2ccco2)cc1	0.8	6	4	2%	0%	-2.2%	-23%
CC(C)CSc1nnc2c3ccccc3n(C)c2n1	-3.3	-11	-8	11%	3%[15.4 µM]	-1.4%	-3%
CC(C)(C)C(=O)Nc1cccc(OC(F)(F)C(F)Cl)c1 (stereo unspecified)	0.5	-12	-29	11%	9%	0.4%	7%
CCCCC(CC)CNC(=O)c1ncn[nH]1 (stereo unspecified)	4.5	-3	14	11%	?	0.4%	11%
CC1CCCCN1C(=O)CSc1nc(C2CC2)nc2ccccc12 (stereo unspecified)	1.3	-2	-16	6%	?	nt	-6%
COCCN(C(=O)COC(=O)Cc1coc2cc3c(cc12)CCC3)c1c(N)n(Cc2ccccc2)c(=O)[nH]c1=O	nt	-14	-6	nt	-5%[15.4 µM]	18µM*	-16%
Cc1nc2c(C(=O)NCc3ccc4c(c3)OCO4)c[nH]n2c(=O)c1Cl	-0.4	-5	12	45µM*	-4%	32µM*	-16%
CCCCn1c(N)c(N(CC(C)C)C(=O)CN(C)S(=O)(=O)c2ccc(F)cc2)c(=O)[nH]c1=O	nt	14	2	nt	-42%[inhibitor]	-1.8%	7%
CCN(CC)c1ccc(NC(=O)CSC(=O)c2ccccc2)cc1	nt	-5	nt	nt	?	-2.6%	-8%
Nc1nc(Cl)nc2c1ncn2C1CC(O)C(CO)O1 (stereo unspecified)	nt	-6	13	nt	nt	-4.3%	16%
COc1ccc(C2CC(O)(c3ccccc3)Oc3cc(OC)cc(OC)c32)cc1 (stereo unspecified)	-0.5&2.5	2	9	?	nt	-16%	6%
CCn1c(=NC(=O)CN2C(=O)CCC2=O)sc2c(C)cc(C)cc21	4.1	-4	19	14%	-57%[inhibitor]	-0.9%	3%
COc1ccc(Cl)cc1NC(=O)CCn1cnc2ccccc2c1=O	-0.5	-30	2	-5%	17%	-1.5%	0%
CCc1ccc(Nc2nnc(SC3CCOC3=O)s2)cc1 (stereo unspecified)	3.7	-1	2	7%	2%	4.0%	-3%
COc1cc2cc(C(=O)N(C)C3CCS(=O)(=O)C3)[nH]c2cc1OC (stereo unspecified)	nt	-6	?	12%	3%	3.5%	6%
COC(=O)CCCC1=CC2=CC(=O)C(C)(OC(=O)c3cccs3)C(=O)C2=CN1CCCOC(C)C (stereo unspecified)	-2.9[11.7 µM]	12	?	3%&11%	nt	0.9%	-5%
COc1ccc2cc(C(=O)NC3CCCCC3)c(=O)oc2c1	-0.1	-7	10	1%	?	2.2µM*	5%
SMILES	Menin MLL FP FL	D2 potentiator	TRPV1 potentiator	Sfp inh	gsp ag	ClpP mod	gsp antag
O=C(NCc1ccc2c(c1)OCO2)c1c[nH]c2ccc(S(=O)(=O)N3CCOCC3)cc2c1=O	1.1	1	-6	1%	39%	?	15%
O=C(Nc1ccccc1)c1nnsc1S(=O)(=O)c1ccc(Cl)cc1	0.2	-39	12	11µM*	15%	-0.9%	4%[15.4 µM]
CC1=C/C(=C/N(C)C)C(=O)O1	?	-4	0	8%	-28%	-1.2%	4%
Cc1ccccc1OCC(=O)Nc1cccc(NC(=O)c2ccco2)c1	-0.7	-6	-10	0%	?	-0.9%	-1%
NNC(=O)c1nnn(-c2nonc2N)c1-c1cccs1	2.3	10	8	4%	?	-3.6%	-1%
CCCc1[nH]n(-c2nc3ccccc3s2)c(=O)c1C=NCCN1CCOCC1	7.1	-8	27	9%	2%	0.6%	-7%
Cc1nn(-c2ccccc2)c2[nH]c(=O)c(CNCc3ccc4c(c3)OCO4)cc12	-3.2	-28	-10	-1%	17%	-27%	1%
Cn1c(Cn2c(=O)sc3ccccc32)nnc1SCC(=O)NCCc1ccccc1	4.4	-1	?	9%	-25%	0.0%	-8%
COc1ccc(NC(=O)N(C)C[C@H]2Oc3c(NC(=O)c4nc5ccccc5s4)cccc3C(=O)N([C@@H](C)CO)C[C@H]2C)cc1	nt	-17	nt	nt	nt	0.4%	?
Cc1cc(NC(=O)CSc2nc3ccccc3c(=O)n2C2CCCC2)no1	4.5	0	-13	17%	9%	2.0%	20%
Cc1ccc(-c2c[n+](CC(=O)Nc3nc(-c4ccccc4)cs3)c3n2CCC3)cc1	4.5	-20	-1	-5%	-8%[15.4 µM]	nt	-12%
O=C(COC(=O)/C=C/c1ccccc1[N+](=O)[O-])NNC(=O)c1ccc(F)cc1	nt	-3	-4	nt	-46%[inhibitor]	-1.8%	-5%
C/C(=N\OCc1nc2ccccc2c(=O)n1/N=C/c1cc(C)cc([N+](=O)[O-])c1O)c1ccccc1	13	-6	4	-23%	-8%	-1.5%	11%
COc1ccc(NC(=O)C2=CC(c3ccc(OC)cc3)=NS(=O)(=O)N2C)cc1	0.4	-13	?	13%	-37%[inhibitor]	0.9%	-17%
CCCCN(C)Cc1c(C)[nH]c2ccc(Cl)cc2c1=O	0.2	-10	4	8%	5%	-4.3%	4%
COC(=O)c1cn(C(=O)c2ccc(C)cc2C)c2ccccc12	-2.4	-6	-1	-29%	?	nt	-12%
O=C(O)CSC(C(=O)Nc1ccc(Br)cc1)c1ccccc1 (stereo unspecified)	-0.6	1	1	8%	3%	nt	11%
CC1=NNC(=O)C1C(c1ccc(Cl)cc1)C(C#N)C#N (stereo unspecified)	2.8	-5	7	-13%	0%[15.4 µM]	nt	-4%
Cc1cc(NC(=O)c2cc(-c3cccs3)on2)nn1Cc1ccc(Cl)cc1	-0.6	-8	-5	16%	-37%[inhibitor]	696%	-10%
COc1ccc(/C=C2\Sc3ccc(C(=O)N4CCOCC4)cc3N(C)C2=O)cc1	3.7	-13	-5	4%	-6%	-0.6%	-11%
Cc1ccccc1NC(=O)CSc1nnc(C)c(=O)[nH]1	0.8	5	27	15%	10%	0.4%	-1%
CCCCCC(=O)Nc1ccc(N2CCOCC2)c(S(=O)(=O)Nc2ccc(OC)cc2)c1	nt	12	-1	nt	-2%[15.4 µM]	nt	-7%
Cc1ccc(NS(=O)(=O)c2ccc(NC(=O)c3ccccc3C(=O)O)cc2)c(C)c1	nt	-6	nt	nt	-2%	nt	1%
COc1ccc(-c2cc(=O)oc3c(C)c(OC(=O)c4cccs4)ccc23)cc1	5.2	-1	1	14%	-12%	-5.4%	11%
CNC(=S)N1CCN(c2cccc(OC)c2)CC1	2.9	3	-5	9%	7%	1.3%	-1%
SMILES	Menin MLL FP FL	D2 potentiator	TRPV1 potentiator	Sfp inh	gsp ag	ClpP mod	gsp antag
CCCn1c(N)c(Sc2ccccc2[N+](=O)[O-])c(=O)n(CCC)c1=O	-0.4	-8	-1	12%	3%[15.4 µM]	nt	nt
COc1ccc(C)cc1NC(=O)CSc1ccc(-c2cccnc2)nn1	1.2	-3	-8	11%	-2%	0.2%	-4%
CCc1nnc(NS(=O)(=O)c2ccc(N=Cc3c(C)[nH]n(-c4ccc(C)c(C)c4)c3=O)cc2)s1	-2.5	3	1	-14%	-1%[15.4 µM]	-3.8%	?
CCN(CC)S(=O)(=O)c1ccc(N2CCCC2)c(NS(=O)(=O)c2cccs2)c1	16	-37	-2	-16%	4%	-1.2%	3%
N#CCC(=O)Nc1ccc(C(=O)OCC(=O)Nc2ccccc2Sc2ccccc2)cc1	13	10	-2	17%	-28%	nt	-4%
COc1ccc(Cc2nc3c4c(ncn3n2)Oc2c(ccc3ccccc23)C4c2ccc(OC)c(OC)c2)cc1 (stereo unspecified)	-1.1	-25	-6	19%	7%	?	-5%
Cc1ccc(/C=C/C(=O)O)cc1S(=O)(=O)N(C)CCO	1.8	-7	4	9%	26%	2.4%	11%
C(#Cc1ccccc1)Cn1nnc2ccccc21	2.5	1	-9	-2%	?	28µM*	-12%
CC(NC(=O)Cc1ccc(S(=O)(=O)N2CCOCC2)s1)c1ccc(Cl)c(Cl)c1 (stereo unspecified)	nt	-17	-10	nt	-35%[inhibitor]	-3.4%	-15%
CC(NC(=O)c1ccc(C#N)cc1)C1CC2CCC1C2 (stereo unspecified)	-1.5	-4	-23	-3%	12%	nt	-2%
COc1ccc(-c2cc(C(=O)Nc3c(C)nn(Cc4ccccc4Cl)c3C)no2)cc1OC	7.8	-11	-1	4%	-1%	-15%	7%
CCC(C)(C)c1ccc(Oc2ccc(N)cc2)cc1	-3.0	-2	-13	18%	13%[15.4 µM]	nt	-4%
Cc1csc(C(=O)O)c1-n1cccc1	2.3	3	-5	7%	-21%	0.7%	10%
Cc1cc(OCC(=O)Nc2cc(S(=O)(=O)N3CCOCC3)ccc2N2CCCC2)ccc1C(C)C	nt	-14	7	nt	-1%	-9.3%	-27%
COc1ccc(O)c(-c2cc(C(F)(F)C(F)F)nc(-c3ccccc3)n2)c1	1.7	-10	2	15%	?	2.0%	-13%
CSc1cccc(NC(=S)Nc2ccc(F)cc2)c1	6.1	-2	nt	11%	-19%	nt	1%

High-throughput results: PubChem BioAssay, National Center for Advancing Translational Sciences (NCATS)
